# Beta apoptosis: blocks beta cell apoptosis; 300,000 tested, 0.8% active; protection from apoptosis, % (no concentration beside the values); INS-1E cytokine-induced death, ATP luminescence, 48 h; percent of positive-control rescue, neutral wells zero;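 active = all replicates at 75% or more, or half of them and the mean; inconclusive = half reach 75% but not the mean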;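 also: 0% = cytokine-treated negative control wells and 100% = positive control rescue; higher means more ATP so stronger rescue from cytokine killing; wells of about 40 µL received 100 nL stock; the first replicate is given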
# T cruzi inh: blocks replication of Trypanosoma cruzi. 300,000 tested, 1.4% active. AID 1885. T. cruzi beta-gal in NIH3T3, luminescence, 90 h. inhibition, % (test concentration not listed);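 active = mean inhibition across valid replicates above about 55%, limit read from the data; inconclusive = mean below that limit but half or more replicates reach it; inactive = mean below it, under half of replicates reach it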;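 also: signal also drops with host cell toxicity which is not excluded here; 0% = plate median of DMSO wells and 100% = zero luminescence signal; higher percent means less beta-gal luminescence so fewer parasites; stock transfer was 50 nL into about 50 µL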
# ALR inh: inhibitors of human sulfhydryl oxidase ALR. 290,000 tested, 3.8% active. purified ALR, DTT oxidation, H2O2 HRP-luminol luminescence. AID 485317. P55789. inhibition, % (concentration not given with the values);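 active = mean and each replicate at 75% or more; inconclusive = only one of the two met; inactive = neither met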;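 also: stock transfer was 7.5 nL into about 7.5 µL; 0% = neutral wells and 100% = wells with inactivated enzyme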
# Beta2AR agonist: human beta-2 adrenergic receptor agonism by FAP; Am2.2-beta2AR cells, FAP receptor internalization, flow cytometry; reference of the scale not given here; response, % (test concentration not listed); 340,000 tested, 0.43% active;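 active = response above a set limit, near 3 SD of response in nonfluorescent compounds, cut at about 42% in these data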;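 also: stock transfer was 100 nL into about 11 µL; a reference agonist was the positive control; negative values mostly stem from fluorescent compounds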
# LANA-H2B inh: blocks KSHV LANA binding to histone H2A/H2B; 320,000 tested, 0.6% active; cell-free LANA-H2A/H2B peptide, fluorescence polarization; inhibition, % (test concentration not listed); Q9QR71; in the data active = inhibition mostly above about 10%, no sharp cut-off; inactive = mostly below about 6.7%;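 also: stock transfer was 7.5 nL into about 10 µL; 0% = median of vehicle wells and 100% = median of positive control wells; one replicate is shown; the record names a cut of 25% in any replicate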
# Target sequence (Q9QR71 whole entry, looked up): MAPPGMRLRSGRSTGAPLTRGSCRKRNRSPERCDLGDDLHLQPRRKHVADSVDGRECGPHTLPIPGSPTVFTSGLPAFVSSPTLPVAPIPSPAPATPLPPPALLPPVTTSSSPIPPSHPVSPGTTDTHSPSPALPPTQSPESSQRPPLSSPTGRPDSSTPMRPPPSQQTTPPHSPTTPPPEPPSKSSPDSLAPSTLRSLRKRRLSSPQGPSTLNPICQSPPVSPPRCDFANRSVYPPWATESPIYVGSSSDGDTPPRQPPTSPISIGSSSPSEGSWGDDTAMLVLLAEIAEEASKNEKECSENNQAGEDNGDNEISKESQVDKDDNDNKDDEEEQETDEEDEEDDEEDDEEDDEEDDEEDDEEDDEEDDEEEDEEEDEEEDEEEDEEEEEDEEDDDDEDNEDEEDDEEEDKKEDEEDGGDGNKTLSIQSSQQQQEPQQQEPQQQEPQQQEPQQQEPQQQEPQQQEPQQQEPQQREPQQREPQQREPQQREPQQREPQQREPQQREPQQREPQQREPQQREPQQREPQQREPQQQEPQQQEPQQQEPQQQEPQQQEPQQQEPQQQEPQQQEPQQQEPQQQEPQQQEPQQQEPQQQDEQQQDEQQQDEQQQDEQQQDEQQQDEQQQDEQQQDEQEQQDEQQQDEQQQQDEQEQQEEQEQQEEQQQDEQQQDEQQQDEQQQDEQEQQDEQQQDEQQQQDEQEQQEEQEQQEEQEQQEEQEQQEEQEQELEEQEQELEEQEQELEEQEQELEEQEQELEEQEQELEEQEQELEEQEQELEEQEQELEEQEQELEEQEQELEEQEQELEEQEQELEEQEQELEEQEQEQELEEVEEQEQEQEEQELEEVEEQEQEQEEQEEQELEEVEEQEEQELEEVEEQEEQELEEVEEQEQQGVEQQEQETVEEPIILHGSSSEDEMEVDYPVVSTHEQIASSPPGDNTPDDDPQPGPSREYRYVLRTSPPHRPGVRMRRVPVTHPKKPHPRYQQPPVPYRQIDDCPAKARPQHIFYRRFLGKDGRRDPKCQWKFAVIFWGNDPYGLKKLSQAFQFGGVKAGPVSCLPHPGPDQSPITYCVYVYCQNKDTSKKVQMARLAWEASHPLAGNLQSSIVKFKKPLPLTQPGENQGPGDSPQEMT
# Ecoli rRNA inh: inhibits bacterial ribosomal RNA function over humanized ribosomes; E. coli WT GFP vs humanized-ribosome RFP mutants, fluorescence, 24 h; hits give low values; DMSO median 0, no signal -100; GFP signal change (wild-type ribosome), % (test concentration not listed); 350,000 tested, 1.6% active;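 active = significant combined selectivity score with lowered wild-type GFP, culture density cut under 30%, mutant RFP and density less affected; inactive = any of these conditions unmet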; also: one replicate is shown; some compounds called inactive have numbers as strong as hits
# Bfl-1 A1 inh: inhibitors of the anti-apoptotic protein A1, read as caspase activation | MEF A1-2A-BIM cells, Caspase-Glo 3/7 luminescence, 3 h; percent of clofoctol response, vehicle zero | caspase activation, % (concentration not given with the values) | 330,000 tested, 0.066% active | AID 2462;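 active = over half of replicate activation scores above 10%, or exactly half above 10 with the replicate mean above 10; inconclusive = replicate mean below 10 yet half the replicates above 10; inactive = over half of replicates below 10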;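 also: wells of about 30 µL received 50 nL stock; many hits fall short of the cut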
# Calb FLC: affects C. albicans growth with fluconazole; 300,000 tested, 0.57% active; growth inhibition, % (no concentration beside the values); AID 1979; C. albicans CaCi-2 (fluconazole-resistant clinical isolate) + fluconazole, Alamar Blue growth, 48 h;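 active = most replicates above 75%; inconclusive = exactly half above 75%; inactive = most below 75%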;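 also: all wells also contain fluconazole at 8 µg/ml as a sub-toxic cotreatment; 0% = median of DMSO wells and 100% = median of geldanamycin control wells; wells of about 8 µL received 7.5 nL stock; the first replicate is given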
# Ecoli rRNA inh OD600: recorded beside Ecoli rRNA inh, whose call it bears; OD600 change, %; measured here: OD600 growth;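 optical density of the mix in the first replicate; 0 = DMSO median and -100 = no signal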
# Ecoli rRNA inh RFP: also measured in Ecoli rRNA inh; calls as there; RFP signal change, %; measured here: RFP humanized mutant strains;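 first replicate; 0 = DMSO median and -100 = no signal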
# Numbers without * were called inactive; u = inconclusive; x = not tested or not shown; & = joins results of further samples. An excerpt; count on the stated rates, not on these rows.
# Below each SMILES: Beta apoptosis	T cruzi inh	ALR inh	Beta2AR agonist	LANA-H2B inh	Ecoli rRNA inh	Ecoli rRNA inh OD600	Ecoli rRNA inh RFP	Bfl-1 A1 inh	Calb FLC
- CC(C)=CC(=O)OCc1csc(CC(=O)Nc2ccccc2C)n1
  -3	15	-16	10	-9.9	1	-3	1.3	0.8	18
- COc1ccc(NC(=O)Cn2c(=O)n(-c3ccc(OC)cc3OC)c(=O)c3c(C)c(C)sc32)cc1
  -5	22	-13	0	-3.4	x	x	x	-0.5	2
- CN1CCN(C(=O)C2=C[C@@H](c3ccc(C(F)(F)F)cc3)C[C@@H](OCc3ccc(CO)cc3)O2)CC1
  -9	0	x	1	-0.4	3	6	-4.4	-0.5	1
- O=C(OCc1ccc2c(c1)OCO2)c1ccc(S(=O)(=O)N2CCCCC2)cc1
  -4	6	-3	-1	3.9	x	x	x	-0.2	-3
- Cc1cc(C(F)(F)F)n(-c2nc(C(=O)NNS(=O)(=O)c3ccccc3[N+](=O)[O-])cs2)n1
  -3	8	10	-2	-4.5	-11	-21	-1.3	0.7	6
- COCCn1c(C)nc2oc3ccc(Br)cc3c(=O)c2c1=O
  -2	-12	3	-6	1.7	x	x	x	-0.6	1
- Nn1cnnc1N/N=C/c1ccc(F)cc1
  -8	6	-9	3	-6.6	8	20	-0.2	-1.0	6
- O=C(NC1=NC2CCCCC2N1)c1ccccc1 (centres undefined)
  -4	x	-2	-9	4.8	x	x	x	-3.9	x
- Cc1ccc(S(=O)(=O)c2nnn3c2nc(N2CCC(C(N)=O)CC2)c2ccccc23)cc1C
  -1	3	-3	-1	-5.2	-11	-17	-0.2	0.1	0
- Cc1ccc(C(=O)N/C(=C/c2ccco2)C(=O)N2CCCCCC2)cc1
  3	-1	7	6	2.3	0	2	-2.0	-0.1	-4
- Cc1ccc([N+](=O)[O-])cc1NC(=S)NCCc1ccccc1
  -7	-13	1	10	2.3	-1	5	2.0	0.3	-7
- CC(CC(=O)N1CCN(c2ccccc2)CC1)c1ccccc1 (centres undefined)
  -1	-4	98*	1	1.8	x	x	x	0.7	-3
- Cc1ccc(-c2nnc(SCC(=O)Nc3cccc(C(=O)N4CCOCC4)c3)n2C)cc1
  0	-19	-1	2	-5.3	x	x	x	0.2	6
- CC(C)c1ccc(N=C2NN=C(c3cccs3)CS2)cc1
  10	0	-1	6	-3.9	-18	-10	-0.4	-0.4	-20
- O=C(c1cccc(Oc2ccccc2)c1)N1CCN(c2ccccn2)CC1
  1	-2	-10	-17	2.7	-39	-49	-7.1	-0.1	15
- CS(=O)(=O)N(C(=O)NC(=O)NC12CC3CC(CC(C3)C1)C2)C1CCCCC1
  0	-6	-3	-6	0.9	9	10	2.5	-0.2	7
- CCOc1cc(C(=O)NC(C)CC)cc(OCC)c1OCC (centres undefined)
  0	18	-13	-2	2.1	x	x	x	-0.2	3
- O=C(C1CCN(S(=O)(=O)N2CCOCC2)CC1)N1CCN(c2ccccc2F)CC1
  3	-11	-8	5	5.9	12	8	3.6	-0.3	-3
- COc1ccccc1S(=O)(=O)Cc1ccc(C(=O)NCc2ccccc2)o1
  6	2	-12	4	-1.9	-3	-2	-1.7	-0.2	3
- CCOc1cc(/C=N/NC(=O)c2ccncc2)ccc1OC(=O)c1ccco1
  4	4	15	-1	2.5	8	1	-2.1	0.2	1

# Part of the list above, set out differently:
> O=C(NC1=NC2CCCCC2N1)c1ccccc1 (centres undefined)
  Beta apoptosis = -4
  T cruzi inh = x
  ALR inh = -2
  Beta2AR agonist = -9
  LANA-H2B inh = 4.8
  Ecoli rRNA inh = x
  Ecoli rRNA inh OD600 = x
  Ecoli rRNA inh RFP = x
  Bfl-1 A1 inh = -3.9
  Calb FLC = x

> O=C(C1CCN(S(=O)(=O)N2CCOCC2)CC1)N1CCN(c2ccccc2F)CC1
  Beta apoptosis = 3
  T cruzi inh = -11
  ALR inh = -8
  Beta2AR agonist = 5
  LANA-H2B inh = 5.9
  Ecoli rRNA inh = 12
  Ecoli rRNA inh OD600 = 8
  Ecoli rRNA inh RFP = 3.6
  Bfl-1 A1 inh = -0.3
  Calb FLC = -3

> O=C(c1cccc(Oc2ccccc2)c1)N1CCN(c2ccccn2)CC1
  Beta apoptosis = 1
  T cruzi inh = -2
  ALR inh = -10
  Beta2AR agonist = -17
  LANA-H2B inh = 2.7
  Ecoli rRNA inh = -39
  Ecoli rRNA inh OD600 = -49
  Ecoli rRNA inh RFP = -7.1
  Bfl-1 A1 inh = -0.1
  Calb FLC = 15

# More results:
# Below each SMILES: Beta apoptosis	T cruzi inh	ALR inh	Beta2AR agonist	LANA-H2B inh	Ecoli rRNA inh	Ecoli rRNA inh OD600	Ecoli rRNA inh RFP	Bfl-1 A1 inh	Calb FLC
- CC(C)CC(c1nnnn1CC1CCCO1)N1CCN(c2cccc(Cl)c2)CC1 (centres undefined)
  -5	-1	-1	-8	1.5	x	x	x	-0.4	7
- COc1cccc(CNC(=O)CCC2CCCN(C3CCOCC3)C2)c1 (centres undefined)
  -8	26	0	1	-0.4	x	x	x	0.7	0
- COc1ccc(/C=N/NC(=O)c2ccncc2)cc1CSc1nc2ccccc2s1
  -9	12	-43	0	-2.4	x	x	x	-0.1	8
- CC(C)CCN1CCN(Cc2ccsc2)CC1CCO (centres undefined)
  -5	2	-6	8	5.3	18	15	0.5	0.4	-5
- O=C(COC(=O)CCCSc1nc2ccccc2[nH]1)Nc1ccc(Cl)cc1
  5	-7	-7	4	-4.5	x	x	x	0.5	-8
- Cc1cccc(C)c1OCC(O)Cn1c2ccccc2c2ccccc21 (centres undefined)
  5	15	-4	0	0.9	x	x	x	-1.0	8
- CCCSc1ccc([C@@H]2[C@H]3C(=O)N(CC)C(=O)[C@H]3[C@]3(C(=O)OC)CCCN23)cc1
  -6	x	x	1	-8.1	-5	0	14	-0.1	x
- CC(=O)c1c(N2CCN(Cc3ccccc3)CC2)nc(=S)n(Cc2ccccc2)c1C
  -8	10	x	5	x	x	x	x	0.7	-10
- COc1ccc(C(=O)NCC(c2ccc(F)cc2)N2CCOCC2)cc1S(=O)(=O)N1CCCC1 (centres undefined)
  -3	2	0	3	-0.5	x	x	x	0.0	50
- O=C(COC(=O)c1ccccc1C(=O)c1ccc(Cl)cc1)NCc1ccccc1
  -7	9	-14	-3	2.6	5	3	2.0	-0.6	-28
- Cc1ccc(-c2cc(C(=O)N/N=C/c3ccc([N+](=O)[O-])o3)c3ccccc3n2)o1
  37	x	-27	6	-1.5	0	2	-0.5	-12	2
- Oc1cccc2ccc[n+](CC(O)Cn3c4ccccc4c4ccccc43)c12 (centres undefined)
  10	32	-17	8	7.5	x	x	x	-0.3	4
- O=C(Nc1ccc(Cl)cc1)Nn1cnnc1
  x	-3	x	1	x	5	12	-1.3	x	-16
- Cc1ccc(C(=O)Nc2cccc(C(=O)NCc3ccccc3)c2)o1
  0	5	x	-4	2.9	x	x	x	-0.4	13
- CCn1cc(CNC(=O)C2CCC(=O)N(CCc3cccc(F)c3)C2)cn1 (centres undefined)
  x	-14	x	-3	x	6	17	1.8	x	-2
- COC(=O)c1c(NC(C)=O)sc(C(=O)Nc2ccccc2OC)c1C
  3	23	4	-11	-0.1	5	7	-1.5	0.8	12
- Cc1nn2c(C)c(C(=O)Nc3ccccc3)cnc2c1-c1ccccc1
  2	9	-5	3	0.6	-32*	-7.2*	-2.4*	-0.7	1
- CCn1c(SCC(=O)N2c3ccccc3CCc3ccccc32)nnc1-c1ccc(OC)cc1
  0	13	-2	-1	5.1	x	x	x	u	-13
- Cc1nc(C(=O)NC2CCCCC2)sc1C1(C)CC(c2cccnc2)=NO1 (centres undefined)
  1	61*	x	x	3.7	x	x	x	0.7	-5
- CNC[C@H]1Oc2c(NS(=O)(=O)c3ccccc3)cccc2C(=O)N([C@H](C)CO)C[C@@H]1C
  -11	x	-1	-5	7.8	0&11	-1&1	0.5&-0.9	-0.8	x
- COc1ccc(OC)c(N/C(=N/C(=S)Nc2ccccc2)Nc2nc(C)cc(C)n2)c1
  2	14	0	20	-11	x	x	x	0.1	5
- CC1Cc2ccccc2N1C(=O)Cn1cnc2ccccc2c1=O (centres undefined)
  0	-1	-1	6	-4.3	x	x	x	0.8	9
- COc1ccccc1CN(C)C(=O)c1cc(-c2cc(OC)c(OC)c(OC)c2)nc2ccccc12
  14	18	x	3	2.2	-7	-15	4.4	1.3	11
- CCOCCCNC(=O)CCC(=O)NNc1nc2ccccc2c2nc(C)nn12
  4	4	1	2	-5.3	13	9	-0.6	0.3	-15
- CSc1ccc(/C=N/NC(=O)C[n+]2ccccc2)cc1
  -8	-11	-16	-10	4.7	8	12	0.2	0.5	-5
- COc1ccccc1-c1cc(C(=O)Nc2cc(C)nn2-c2ccccc2)no1
  10	0	-5	-2	9.1	x	x	x	-1.1	6
- CCCCN(C(=O)c1cnccn1)c1c(N)n(CCC)c(=O)[nH]c1=O
  -1	x	-1	5	2.5	7	6	-1.3	0.5	x
- O=C(O)c1ccc(N/N=C/c2cccc3nccnc23)cc1
  -3	0	9	11	-3.1	4	-2	-5.5	-3.5	-15
- COCCn1c(C)cc(C(=O)COC(=O)c2ccc(N3CCCC3=O)cc2)c1C
  -4	3	x	-10	2.0	x	x	x	1.4	14
- Cc1nc(C(=O)Nc2ccc(Cl)cc2)sc1C1(C)CC(c2ccccc2)=NO1 (centres undefined)
  5	29	x	-7	-4.2	2	-7	2.7	0.7	1
- Cc1cc(=O)oc2cc3c(cc12)OCCO3
  3	-2	-13	5	0.5	x	x	x	-0.5	29
- CC12COC3(P(=O)(c4ccccc4)c4ccccc4)CC1CCC23CP(=O)(c1ccccc1)c1ccccc1 (centres undefined)
  0	25	-24	5	-2.5	x	x	x	0.4	50
- CCOc1ccc(-c2c(=O)n(OCc3nc4ccccc4[nH]3)c3ccccc3[n+]2[O-])cc1
  -3	1	-18	-2	-6.7	-2	3	3.5	0.0	-7
- Cc1nc2ccccc2nc(C)c1=NOCc1cccc(Cl)c1
  -4	8	x	6	0.1	10	2	-1.3	-0.3	-5
- CCOC(=O)/C=c1\s/c(=C\c2c(OCC)ccc3ccccc23)c(=O)n1CC(=O)NCC1CCCO1 (centres undefined)
  -10	40	x	-1	1.8	x	x	x	0.5	-10
- O=S(=O)(c1cc(Cl)sc1Cl)N1CCCC1
  -22	x	1	-3	4.5	5	7	-3.2	0.7	2
- Cc1ccccc1CCNC(=O)C1CC(O)CN1C(=O)Nc1ccccc1 (centres undefined)
  -1	-4	-2	-10	-2.1	6	13	5.2	0.6	4
- Cc1cccc(C)c1NC(=O)COn1nnc2ccc(C(F)(F)F)cc21
  -12	-3	-1	-10	-1.7	1	-2	-1.0	0.3	11
- O=C(Cn1ccc(C(F)(F)F)n1)N=Nc1c(O)[nH]c2ccccc12
  -2	-5	-3	-4	0.9	-4	7	-2.2	0.4	-14
- CCN(CC)CCOC(=O)c1cccc(Br)c1
  -1	-25	1	-1	1.9	x	x	x	0.7	0
- O=C(N/N=C/c1ccc([N+](=O)[O-])cc1)c1cc(C2CC2)[nH]n1
  -3	-4	x	-4	0.9	0	8	-3.2	-0.9	12

# Screening results: PubChem, several laboratories
